# Source: PubChem
# MT1-MMP act inh: blocks activation of human MT1-MMP; P50281; HT1080 RFP-PRO-GFP cells, GFP/RFP ratio fluorescence, overnight; percent of plate control window, DMSO zero; GFP/RFP ratio change, % at 20 µM; actives 0.061% (n = 360,000);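 active = GFP/RFP ratio change of at least 30% with cell ATP level not reduced by more than half and red fluorescence within 50% of control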; also: strong numbers were not always called active
#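 Material: RFP-PRO-GFP reporter HT1080 cells. Dosing: single-point 20 µM compound, 1% DMSO. Controls: DMSO and RFP-L50D-GFP cell wells. Timing: cells overnight before dosing, compound overnight, 37 °C, 5% CO2. Measure: GFP/RFP fluorescence ratio.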
# CSC inhib: cancer stem cell inhibition; cancer stem cell-like cells viability, luminescence; inhibition, % at 7.5 µM; actives 1.1% (n = 300,000); AID 2717;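 active = mean at 75% or more and at least half the replicates too; inconclusive = mean and replicates disagree; tested in HMLE shEcad cells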;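 also: 0% = median of negative and 100% = median of positive control wells; the first replicate is given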
# PABP FP inh: PABP-poly(A) binding inhibition. PABP-poly(A) RNA binding, fluorescence polarization. inhibition, % at 35 µM. actives 1% (n = 290,000). AID 2014;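 active = 50% or more with normal probe brightness, or confirmed in later tests; inconclusive = above 50% with abnormal brightness, or retests that disagree; inactive = below 50% or failed in later tests; about a fifth of its hits are not listed in these tables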;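 also: calls also rest on retests at 20 µM and on dose response follow-up; controls were probe without protein and protein plus probe with vehicle; some compounds called inactive have numbers as strong as hits; many hits fall short of the cut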
# Target sequence (P11940 whole entry, looked up): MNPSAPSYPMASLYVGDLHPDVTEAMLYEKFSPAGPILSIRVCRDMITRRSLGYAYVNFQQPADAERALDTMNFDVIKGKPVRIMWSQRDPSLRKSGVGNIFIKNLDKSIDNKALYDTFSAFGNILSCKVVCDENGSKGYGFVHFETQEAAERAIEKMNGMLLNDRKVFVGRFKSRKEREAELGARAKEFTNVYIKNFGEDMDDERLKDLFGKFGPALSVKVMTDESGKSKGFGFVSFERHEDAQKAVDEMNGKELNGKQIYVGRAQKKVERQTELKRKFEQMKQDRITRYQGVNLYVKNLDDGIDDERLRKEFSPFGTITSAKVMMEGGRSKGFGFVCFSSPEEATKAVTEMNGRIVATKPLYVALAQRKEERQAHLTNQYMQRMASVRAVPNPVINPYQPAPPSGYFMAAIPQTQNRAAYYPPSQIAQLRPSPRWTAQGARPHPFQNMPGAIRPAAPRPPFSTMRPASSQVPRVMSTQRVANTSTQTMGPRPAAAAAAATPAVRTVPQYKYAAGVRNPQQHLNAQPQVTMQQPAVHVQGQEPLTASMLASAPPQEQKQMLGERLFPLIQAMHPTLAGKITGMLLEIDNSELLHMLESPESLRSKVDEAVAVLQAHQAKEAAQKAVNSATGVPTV
# eIF4H inh: inhibitors of RNA binding by human eIF4H | eIF4H fluorescence polarization binding assay | inhibition, % at 35 µM | actives 0.94% (n = 290,000) | AID 2012;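 active = 50% or more with normal probe brightness, or confirmed in later tests; inconclusive = above 50% with abnormal brightness, or retests that disagree; inactive = below 50% or failed in later tests; about a fifth of its hits are not listed in these tables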;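 also: calls also rest on retests at 20 µM and on dose response follow-up; 0% = protein and probe with vehicle and 100% = probe without protein; strong numbers were not always called active; many hits fall short of the cut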
# HIV Env fusion: blocks HIV Env-driven cell-cell fusion. HeLa-JRFL Env/CEM21 cell fusion, luciferase. inhibition, % at 12.3 µM. actives 1.1% (n = 360,000);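 active = mean replicate inhibition score of at least 50 and every replicate individually at or above 50; inconclusive = only one of the two criteria met; inactive = mean below 50 and not all replicates reaching 50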;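 also: 0% = plate neutral controls and 100% = maraviroc near 300 nM; one replicate is shown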
# Yeast UUG start: alters start codon recognition fidelity in yeast; actives 0.13% (n = 350,000); AID 602363; S. cerevisiae UUG-firefly luciferase reporter, luminescence/redox ratio; activity score, % at 18.7 µM;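 active = replicate mean at a twofold rise or more, about +100% in these data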;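 also: firefly luciferase made from a UUG start codon reports start codon fidelity; reporter light over untreated wells divided by growth signal over untreated wells; some hits fall short of that in this replicate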
# Rce1 inhib: inhibitors of yeast Ras-converting enzyme | yeast membranes, quenched prenylated peptide cleavage fluorescence | calls only | actives 0.27% (n = 290,000) | AID 2563;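 active = fall in fluorescence gain of 50% or more versus controls, with final raw signal at or below 3038400; inconclusive = same 50% fall but final raw signal above 3038400; inactive = fall in fluorescence gain under 50%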;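 also: plate controls were neutral control wells for no effect and wells lacking membranes for full effect; tested at 10 µM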
# eIF4H inh retest: further read-out of eIF4H inh, marked with its call; inhibition, %; compound at 20 µM; confirmation average;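 mean of two retest wells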
# PABP FP inh retest: further read-out of PABP FP inh, marked with its call; inhibition, %; compound at 20 µM; confirmation repeats;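 mean of two retest wells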
# MT1-MMP act inh RFP: second read-out of MT1-MMP act inh, no call of its own (marks repeat the call); RFP signal change, %; measured here: RFP expression control read;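 0 = vehicle wells; hits needed this value within 50% of zero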
# * = called active by the depositor; i = inactive; u = inconclusive; x = no result given; & = joins results of further samples. This is a subset. The share of hits here may be higher or lower than overall.
SMILES,MT1-MMP act inh,MT1-MMP act inh RFP,CSC inhib,PABP FP inh,eIF4H inh,HIV Env fusion,Yeast UUG start,Rce1 inhib,others
Cc1ccc(N2CCN(c3ncccc3[N+](=O)[O-])CC2)c(C)c1,1,-1,16,3,2,24,-13,i,
O=C(O)c1ccc(S(=O)(=O)c2ccc3c(c2)C(=O)N(CC2CCCO2)C3=O)cc1 (configuration not stated),-1,1,2,5,-12,x,-3,i,
COCCNC(C)C(=O)C12CC3CC(CC(C3)C1)C2 (configuration not stated),5,4,45,7,-1,x,-6,i,
C=CCn1c(-c2ccc(S(=O)(=O)N3CCOCC3)cc2)csc1=Nc1ccccc1,-13,-29,27,-12,-10,x,3,i,
Cc1ccc(C(=O)NCC(c2ccco2)N2CCc3ccccc32)cc1C (configuration not stated),-6,-3,11,x,x,-3,-10,i,
O=C(N/N=C/c1cc(Br)c(Br)o1)C(O)c1ccccc1 (configuration not stated),5,5,-6,-11,63*,0,x,i,eIF4H inh retest=83*;PABP FP inh retest=27
S=C(NC1CCCCC1)N1CCc2ccccc2C1,12,-18,6,11,-9,3,-22,i,
CCc1ccccc1NC1Nc2cc(C)nn2S1 (configuration not stated),-1,-4,-15,34,1,-11,x,i,
CCN(CC(=O)Nc1ccc2c(c1)OCCO2)S(=O)(=O)c1ccccc1,-4,-1,1,-4,-4,-16,-17,i,
CC(C)(C)NS(=O)(=O)c1ccc2nc(NC(=O)c3ccc(N4C(=O)CCC4=O)cc3)sc2c1,-1,0,-13,-15,0,19,x,i,
CN(C)C(=O)N(CCCN1CCOCC1)Cc1cccc2ccccc12,1,-2,-12,-2,-1,5,2,i,
COc1ccccc1NS(=O)(=O)c1cc(C(=O)NCc2ccncc2)ccc1C,0,-1,x,x,x,x,-10,i,
CC1=Nc2ccccc2/C1=C/c1sc(=S)n(-c2cccc(C(=O)O)c2)c1O,-161,4,x,-3,u,0,x,i,
Cc1scc(C(=O)N/N=C/c2ccco2)c1C,-2,0,-4,-5,41,-123,-17,i,
Cc1cc(C(=O)Nc2c(C)nn(Cc3ccc(Cl)cc3)c2C)no1,5,0,-2,21,-1,10,x,i,
CCOCC(=O)Nc1ccccc1C(=O)O,1,1,-19,9,0,11,-14,i,
CCOC(=O)c1c(C)oc2c1c(C(c1ccccc1)N1CCOCC1)c(O)c1ccccc12 (configuration not stated),-14,-6,57,-2,-7,-362,-29,i,
Cc1c(C(=O)O)oc2ccc(S(=O)(=O)N(CC(C)C)CC(C)C)cc12,-4,-1,-10,2,2,x,18,x,
CCOC(=O)N1CCN(Cc2oc(CO)cc(=O)c2O)CC1,1,5,11,0,2,x,-9,i,
CC(C)N(C(=O)[C@H]1CC(CC(=O)NCCN2CCOCC2)C(=O)N2CCc3c([nH]c4ccccc34)[C@]12C)C(C)C (some centres not stated),3,6,x,x,x,18,-14,x,
NS(=O)(=O)c1ccc(CNC(=O)c2cc(S(=O)(=O)N3CCOCC3)ccc2N2CCCC2)cc1,-6,6,x,x,x,-3,6,x,
O=C(NCc1cccnc1)c1ccc(-c2cc(Cl)ccc2Cl)o1,-7,-4,-10,5,5,17,x,i,
CC(=O)C[C@H](O)CC(=O)[C@@H]1OC(=O)CCCCC/C=C/Cc2ccccc21,-14,-4,-10,x,x,10,25,x,
C=CCn1cc(C(=O)OCC)c(=O)c2cc(F)c(F)cc21,-2,-4,-1,-8,0,-4,-18,x,
O=c1[nH]c(CN2CCN(c3ccccc3O)CC2)nc2scc(-c3ccccc3Cl)c12,-2,-11,4,-14,-9,3,-13,i,
CCOC(=O)C(CC)n1cnc2c(nnn2-c2ccc(F)cc2)c1=O (configuration not stated),-3,6,-15,-3,-6,-11,8,i,
CC1(C)COC(c2ccccc2Cl)OC1,-1,0,x,x,x,-4,-15,x,
Clc1ccc(-c2onc3c2CCCC3)cc1,-8,-6,-3,-4,-6,x,-21,i,
COc1ccc2nc3cc(Cl)ccc3c(Nc3cc(C(C)C)c(O)cc3C)c2c1,-6,-21,103*,13,-1,-9,-5,i,
Cc1cc2c(cc1C)-c1nnc(-c3ccc4ccccc4n3)n1C(C)(C)C2,x,x,-8,3,-1,x,x,i,
CCc1nnc(NC(=O)C(NS(=O)(=O)c2ccc3c(c2)OCCO3)C(C)C)s1 (configuration not stated),-3,-2,-10,-1,6,-30,-2,i,
O=C1OC(Cc2ccccn2)C(=O)C1=C1SCCS1 (configuration not stated),5,7,-13,1,2,-32,-19,i,
Cc1ccc(O)c(-c2cc(-c3ccccc3C)[nH]n2)c1,9,-3,x,1,-4,-40,-2,i,
COCc1cc(C)nc(SCC(=O)NC2CCCCC2C)c1C#N (configuration not stated),-1,-3,-5,-9,-16,2,-4,i,
Cc1cccc(NC(=S)NC2CC3C=CC2C3)c1 (configuration not stated),2,-1,-13,-5,-7,-1,-29,i,
O=C(COC(=O)c1cc2ccccc2o1)NCc1ccco1,2,7,x,x,x,1,1,x,
CCOc1ccc(NC(=O)CN(C)Cc2cc(=O)n3c(-c4ccccc4)csc3n2)cc1OCC,-2,0,-11,-10,35,35,x,i,
COc1ccc(C2C(C(=O)Nc3ccc4c(c3)OCCO4)c3ccccc3C(=O)N2C)cc1 (configuration not stated),5,2,-5,-6,-4,-5,4,i,
COc1ccc(-c2cc(C#N)nc(Oc3ccc(Cl)cc3)n2)cc1,2,-6,-1,0,-5,-4,x,i,
CCOC(=O)c1sc(NC(=O)/C=C/c2cnn(CC)c2C)c(C(=O)OCC)c1C,-2,-10,21,-3,6,31,-6,i,
Cc1ccc(OCCC(=O)OCC(=O)Nc2cc(C)nn2-c2ccccc2)cc1,2,5,-6,2,-1,-5,-2,i,
CCN(Cc1ccncc1)C(=O)CSc1ccc2ccccc2c1,-4,-1,8,17,1,-11,-12,i,
CCN(CC)c1ccc(C(=O)OCC(=O)NC2CCCCC2C)cc1 (configuration not stated),-7,-3,1,3,-8,-12,-12,i,
CNC(=O)CC(C(=O)O)c1ccc(OCC(C)C)cc1 (configuration not stated),-2,3,3,11,0,7,6,i,
Fc1ccc(-c2csc(=S)[nH]2)cc1,-3,2,-4,44,-6,-12,x,i,
COc1ccc(-n2c(-c3ccc(C(C)(C)C)cc3)n[nH]c2=S)c(OC)c1,2,1,x,x,x,-8,-18,x,
O=C(Nc1ccccc1)c1ccc(S(=O)(=O)N2CCCCC2)cc1,-3,-10,4,5,3,12,5,i,
COc1cc(/C=N/Nc2ccc(Cl)c(C(=O)O)c2)ccc1OC(=O)c1ccco1,-1,-3,7,-1,-2,15,7,i,
Cc1ccccc1S(=O)(=O)Nc1nc2ccccc2nc1N1CCc2ccccc2C1,-6,-9,22,-3,-7,21,-22,i,
Cc1cc(Cl)ccc1OCCNC(=S)NC(=O)c1cccnc1,3,2,-9,-2,-5,-60,-13,i,
# (cont.)
SMILES,MT1-MMP act inh,MT1-MMP act inh RFP,CSC inhib,PABP FP inh,eIF4H inh,HIV Env fusion,Yeast UUG start,Rce1 inhib,others
O=C(NNc1nc2c(F)cccc2s1)C1=COCCO1,2,3,-1,-11,11,21,-4,i,
Cc1ccc(-c2csc(NC(=O)c3ccc(Br)cc3)c2C(=O)O)cc1,-3,-7,37,-5,0,-18,x,i,
O=C(NCc1ccc(F)cc1)N1CCN(S(=O)(=O)c2ccccc2F)CC1,3,4,-7,-9,-6,-15,-7,i,
Cc1ccc(-n2c(=O)c3c4c(sc3n(Cc3cc(=O)n5ccccc5n3)c2=O)CCC4)cc1C,1,3,-15,-4,7,x,x,i,
CCc1cccc(NS(=O)(=O)c2ccc3c(c2)n(C)c(=O)n3C)c1,-7,-18,10,2,6,45,-7,i,
COc1ccc(-c2cnc3c(NC=O)cc(-c4ccccc4OC)cn23)cc1OC,12,-5,x,x,x,-180,-11,x,
O=C1OCCN1C(=O)[C@H]1[C@H](c2ccc([N+](=O)[O-])cc2)C(c2ccccc2)=NN1c1ccc(Br)cc1,-3,-3,x,x,x,-22,-2,x,
CCc1ccc(-c2nc(SCC(=O)N(CC)C3CCS(=O)(=O)C3)n[nH]2)cc1 (configuration not stated),-3,2,5,x,x,-31,x,i,
CCN(CC(=O)Nc1ccc(NC(C)=O)cc1)C(=O)CN1C(=O)C2CCCCC2C1=O (configuration not stated),2,-1,-5,x,x,8,6,x,
COc1ccc(CN2CCC(Oc3ccc(C(=O)N4CCCCC4)cc3)CC2)cc1C,2,1,13,4,-4,-2,-12,i,
CCCn1c(=O)c2ccccc2n2c(SCC(=O)NCc3cccs3)nnc12,6,2,7,7,-6,-9,-18,i,
NC(=O)c1ccc([N+](=O)[O-])cc1SCc1ccccc1,2,1,-2,15,41,x,-17,i,
O=C(c1cccc(F)c1)n1nnc2ccccc21,6,7,-11,4,1,9,-17,i,
CCC(CC)C(=O)c1c[nH]c(C(=O)NCc2ccncc2)c1,-2,3,-6,-14,-6,10,-14,i,
Fc1ccccc1-c1[nH]ncc1-c1nnnn1-c1ccccc1,-3,-1,5,5,-5,14,-16,i,
O=C(CC1SC(=Nc2ccccc2)N(CCO)C1=O)Nc1ccccc1 (configuration not stated),0,0,-11,-6,-7,-9,x,i,
Cc1ccc(C)c(S(=O)(=O)N(C)Cc2cccs2)c1,-1,2,-5,x,x,2,-23,x,
CCSc1n[nH]c2nc3c(c(=O)n12)C1(CCCC1)Cc1ccccc1-3,0,-1,4,3,-3,x,-15,i,
COc1cccc(-c2nnc(SCC(=O)N3CCCC3=O)n2-c2ccccc2)c1,4,7,-14,6,7,x,-14,i,
CN1CCN(S(=O)(=O)c2cccc(S(=O)(=O)c3cccc(S(=O)(=O)N4CCN(C)CC4)c3)c2)CC1,0,9,13,3,-5,-86,-14,x,
NC(=S)N/N=C\c1c(OCc2ccccc2Cl)ccc2ccccc12,1,-24,28,-3,85,49,-15,i,eIF4H inh retest=-12;PABP FP inh retest=0
O=C(CCS(=O)(=O)c1cccs1)N1CCN(c2ccc(F)cc2)CC1,-1,1,-8,10,7,27,-2,x,
COc1ccc(S(=O)(=O)N(C)C[C@@H]2OCCCC[C@H](C)Oc3ccc(NC(=O)Nc4ccc(C(F)(F)F)cc4)cc3C(=O)N([C@H](C)CO)C[C@H]2C)cc1,0,-6,x,x,x,-6,-19&-21,x,
CCOc1ccccc1C(=O)N1CCC(n2nnc3cc(C(F)(F)F)ccc32)CC1,4,-6,1,9,2,0,-21,i,
O=C(NCc1cccc(Br)c1)C1CC(c2ccc(C(F)(F)F)cc2)=NO1 (configuration not stated),3,1,14,x,x,-18,-18,i,
COc1ccc(CC(=O)N2CCC(n3nccc3NC(=O)C3CC3)CC2)cc1,0,3,-8,-5,12,-7,0,i,
COc1ccc2c(c1OC)C(=O)N(c1cccc(C)c1)C2,1,0,4,7,0,x,-29,i,
C=CC[C@@H](Cc1ccc(F)cc1)C(=O)OC[C@H]1CCCN1C(=O)[C@@H](CC=C)CC(=O)N[C@@H](CO)Cc1ccccc1,-4,-9,x,x,x,-153,-9,x,
CN(Cc1ccccc1)C(=O)COC(=O)c1cncc(Br)c1,1,5,-12,0,7,9,x,i,
COc1cccc(CNc2ccc3[nH]c(=O)[nH]c3c2)c1OCc1ccccc1Cl,2,-4,-5,15,-14,18,-12,i,
